# Source: PubChem (National Center for Advancing Translational Sciences (NCATS))
# Anthrax LT inh – qHTS Assay for Anthrax Lethal Toxin Internalization. Cells, anthrax lethal toxin internalization, FRET ratio (460/530). Potency, µM (series often up to 40 µM), without a hit: top-dose activity change, negative = inhibition, hits mostly inhibitors. 70,000 tested, 0.67% active; active = well fitted falling ratio curve with the 530 nm signal flat; inconclusive = other ratio curves, or a change in one channel alone; inactive = flat curves in the ratio and both channels; the % refers to the ratio; further: on the % scale 0 is the no-effect control and ±100 the full control effect; nearly all actives have a fitted effect of over 50% in size; tested in ME-180 cells; beta-lactamase reporter
# SmPrx2 inh – Schistosoma Mansoni Peroxiredoxins (Prx2); Schistosoma mansoni peroxiredoxin 2 (Prx2); Potency, µM; 65,000 tested, 0.07% active; S. mansoni Prx2 activity coupled to TGR/GSH (TGR is thioredoxin glutathione reductase), NADPH fluorescence loss, qHTS; some inactives read as strong as hits; active means full or partial inhibition curve with a strong effect at the top dose; inconclusive means weaker partial or single-point curve; inactive means no accepted curve; further: series up to 57 µM; many of its hits are not listed in these tables
#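 qHTS, coupled TGR/Prx2 format; 15 min compound preincubation at RT; reaction started with H2O2 (2.5 mM aliquot); kinetic NADPH fluorescence decrease, ex 365/em 450 nm.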
# The depositor's hits bear a star; i = inactive; ? = inconclusive; nt = no result given; [ ] = remark or other dose. Potency means the concentration at half of the fitted maximal effect. A portion of the library (hit frequency here may not be typical).
Molecule | Anthrax LT inh | SmPrx2 inh
COc1cccc(NS(=O)(=O)c2ccc(NC(C)=O)cc2)c1 | ? | >57
COc1cccc(CNc2ccc3c(c2)ncn3C(C)C)c1OC | 0.8% | >57
COc1ccc(COn2c(=O)c(C)[n+]([O-])c3ccccc32)cc1OC | 1.0% | >57
COc1cccc(C(=O)N2CCN(c3ncccn3)CC2)c1 | -0.6% | >57
CC(=O)c1ccc(O)c(CN(C2CCCCC2)C2CCCCC2)c1O | -2.3%[8 µM] | >57
CCCCCCOc1ccc(C(CC(=O)O)C(N)=O)cc1 (centres undefined) | 3.3% | >57
CN(Cc1ccccc1)Cc1nc2c(c(=O)n(C)c(=O)n2C)n1Cc1ccc(F)cc1 | nt | >57
CCOC(=O)C1CCCN(c2c(N3CCN(c4ccccn4)CC3)c(=O)c2=O)C1 (centres undefined) | 1.1% | >57
FC(F)(F)c1nnc2ccc(N3CCCCCC3)nn12 | ? | >57
Oc1ccccc1CN1CCCN(Cc2ccccc2O)C1 | ? | >57
O=C(O)c1oc2ccccc2c1-n1cccc1 | -15.2% | >57
CC(=NCC1CCCO1)c1c(O)n(C)c(=O)n(C)c1=O (centres undefined) | 1.3% | >57
Cc1nn(-c2ccccc2)c2[nH]c(C(F)(F)F)cc(=O)c12 | -14.0% | >57
Cc1c(C(=O)N2CCc3ccccc3C2)sc2nc(-c3ccccc3)cn12 | -27.7% | >57
COc1cccc(Cn2c(Oc3cccc(C)c3)nc3c2c(=O)n(C)c(=O)n3C)c1 | ? | >57
COc1ccccc1OCCOc1ccc(/C=N/n2cnnc2)cc1 | 9.0% | nt
[N-]=[N+]=NC[C@@H]1O[C@@H](n2cnc3c(N)ncnc32)[C@@H]2O[C@@H]21 | 0.3%[8 µM] | >57
c1ccc(OCc2nn3c(-c4ccncc4)nnc3s2)cc1 | ? | >57
C#CCO | -4.3% | nt
COC(=O)C(C(=O)Nc1ccc(OC)cc1)C1CCCCCC1 (centres undefined) | -2.6% | >57
CCn1c(=O)c(C(=O)CN2CCCc3ccccc32)c(N)n(Cc2ccccc2)c1=O | -27.5% | >57
O=C(CCNC(=O)c1ccc(Br)o1)NCc1ccccc1Cl | -11.8% | >57
O=C(Nc1cccnc1)c1cccc(NC(=O)c2ccco2)c1 | -4.7% | nt
O=C(Nc1cccc(F)c1)N1CC[C@@]2(CCCN(C(=O)Oc3ccccc3)C2)C1 | 7.1% | >57
Cc1ccc(S(=O)(=O)Cn2nnnc2CN2CCCC3(CCCCC3)C2)cc1 | -9.2% | >57
COc1ccc(-n2c(COc3ccccc3)nnc2SCC(N)=O)cc1 | -6.4% | >57
CCCc1nnc2n1N=C(c1ccc(-c3cc(Cl)ccc3Cl)o1)CS2 | 1.0% | >57
C=CCNc1ncnc2c1[nH]c1ccc(C)cc12 | 17.9% | >57
CC(=O)c1c(C)[nH]c(C(=O)NCCC2=CCCCC2)c1C | 0.4% | >57
CCN1CCN(c2cc(=O)n(-c3cc(Cl)ccc3C)c(=O)[nH]2)CC1 | -17.5% | >57
Cc1cc(C)n(CC(=O)NCc2cc(-c3nn(C)c(=O)c4ccccc34)ccc2C)n1 | 1.7% | >57
Cc1c(-n2cc(C(=O)c3ccccc3O)cc(C#N)c2=O)c(=O)n(-c2ccccc2)n1C | -5.3% | >57
CN1C(=O)CSc2ccc(NC(=O)NCc3ccco3)cc21 | 3.7% | >57
O=C(c1ccccc1)c1c[nH]c2cc3c(cc2c1=O)OCCO3 | 23.3% | >57
Cc1nc(NCc2ccccc2)c2nc(-c3ccccc3)n(CC3CCN(C)CC3)c2n1 | -12.2% | nt
Cc1cccc(C)c1NC1=NC(C)(C)N=C(N)N1 | -15.7% | >57
CC(C)Cn1c(N)c(C(=O)COC(=O)c2ccncc2)c(=O)n(C)c1=O | 0.0% | >57
CCOC(=O)N1CCN(C(=O)c2cc(-n3cnnc3)ccc2Cl)CC1 | ? | >57
Cn1c(C(=O)Nc2ccc3c(c2)OCO3)cc2c(=O)n(C)c3ccccc3c21 | ? | >57
COc1cccc2c1C(=O)c1c(O)c3c(c(O)c1C2=O)C[C@](O)(C(=O)CO)C[C@H]3O[C@@H]1C[C@H](N)[C@H](O)[C@H](C)O1 | ? | >57
O=C(c1ccco1)N1CCN(C(c2cccs2)c2nnnn2C2CCCCC2)CC1 (centres undefined) | 15.7% | >57
O=c1nc(N2CCCCC2)nc2n1CCO2 | nt | >57
COc1ccccc1C1NC(=O)NC(C)=C1C(=O)Nc1cccc(C)c1C (centres undefined) | 0.7% | >57
O=C(Nc1ccccc1)c1ccc(S(=O)(=O)N2CCCC2)cc1 | 1.7% | >57
CCN(CC)c1c(-c2ccccc2)c2cc(C)ccc2[nH]c1=O | -1.8% | >57
Cc1ccc(C)c(NC(=O)C2CC=CCC2C(=O)O)c1 (centres undefined) | 12.1% | nt
C=CCN(C1CCCCC1)S(=O)(=O)c1ccc2c(c1)oc(=O)n2C | ? | >57
Cc1cccc(N(C)c2cc(C)nc3ncnn23)c1 | -1.5% | >57
O=C(COc1ccc(Cl)cc1Br)N1CCN(c2ccccc2)CC1 | 14.4% | >57
O=C(c1ccccc1-c1nc(-c2ccccc2)no1)N1CCCC1 | 4.0% | >57
CCOC(=O)N1CCC(N2C(=O)c3ccccc3C2Nc2cc(C(=O)OC)cc(C(=O)OC)c2)CC1 (centres undefined) | -29.6% | >57
Cc1occc1C(=O)N1CCN(Cc2ccccc2)CC1 | -24.1% | nt
O=C1C(=O)N(CCCN2CCOCC2)C(c2ccccn2)/C1=C(\O)c1ccc2c(c1)OCCO2 (centres undefined) | ? | >57
C=CCNS(=O)(=O)c1cccc2cc(C(=O)O)c(O)cc12 | -9.6% | >57
CC(C)=CCSc1nnc([C@@H](NC(=O)OC(C)(C)C)C(C)C)o1 | -11.0% | ?
COc1ccc2[nH]cc(CCNc3ncnc4ccc(-c5cccnc5)cc34)c2c1 | -9.6% | >57
O=C(c1ccco1)c1n[nH]nc1-c1ccccc1 | 20.8% | >57
O=S(=O)(c1ccc2c(c1)OCO2)N1CCN(c2nnnn2-c2ccccc2)CC1 | -1.7% | >57
CC1CCC2C(=O)N3C(CCC(C)[C@H]3c3ccccc3Br)C(=O)N2C1c1ccccc1Br (some centres undefined) | ? | nt
Nc1ncnc2nc(SCCc3ccccc3)[nH]c12 | 12.1% | >57

# Following part
Molecule | Anthrax LT inh | SmPrx2 inh
Cc1cccc(N2CCN(C(=O)C3CCCCC3)CC2)c1C | ? | nt
COC(=O)CSc1ccc2nnc(-c3ccc(OC)c(OC)c3)n2n1 | ? | >57
COc1cccc(NC(=O)c2oc3ccccc3c2NC(C)=O)c1 | 5.8% | >57
O=C(CSc1nc(-c2ccc(F)cc2)cs1)NC(=O)NCc1ccco1 | -19.0% | >57
Cc1ccccc1S(=O)(=O)NC1OC(=O)C(Cl)=C1Cl (centres undefined) | 2.5% | >57
C=CCn1c(-c2ccccc2)nc2nc3ccccc3nc21 | 16.2% | >57
Cc1cc(NC(=O)CCC(=O)N(CC(=O)NC2CCCC2)Cc2ccc(F)cc2)no1 | -2.5% | >57
COc1ccc(CCNC(=O)C2CCN(S(=O)(=O)c3c(C)noc3C)CC2)cc1OC | ? | >57
COC(=O)c1cc(COC(=O)c2cccnc2SC)oc1C | 0.2% | >57
Cc1csc(NC(=O)CCn2c(=O)oc3ccccc32)n1 | 17.8% | >57
COc1ccccc1NC(=O)C1=C(C)Nc2nnnn2C1c1cc(Br)ccc1OC (centres undefined) | ? | >57
COc1cc(OC)c(NC(=O)CCc2nc(-c3ccc(C)cc3)no2)cc1Cl | -1.3% | nt
C=C(Br)Cn1c(CCC)nc2ccccc21 | -28.0% | >57
COc1cccc(-c2csc3nc[nH]c(=O)c23)c1 | -3.3% | >57
CN(c1ccc(C(=O)N2CCN(c3ccc(F)cc3)CC2)cc1)S(C)(=O)=O | nt | >57
CN(C)C(=O)Oc1ccc[n+](C)c1 | -0.8% | >57
CCn1c(=O)n(CC(=O)N(C)Cc2ccccc2)c(=O)c2ccccc21 | -11.4% | >57
O=C(NCc1ccc2c(c1)OCO2)C1CCN(S(=O)(=O)c2cccs2)CC1 | 0.3% | >57
COC(=O)CN(c1ccc(OC)cc1)S(=O)(=O)c1ccc(OC)c(OC)c1 | -1.4% | nt
Cc1oc(-c2ccccc2)nc1C(=O)Nc1nccs1 | -8.4% | >57
N#CC1=C(N)OC2=C(C(=O)CCC2)C1Cc1ccccc1 (centres undefined) | 5.9% | >57
Cc1oc(-c2ccccc2Cl)nc1CSCC(=O)NC1CC1 | 7.3% | >57
Cc1cc(Nc2ccc(F)cc2F)n2ncnc2n1 | -2.1% | >57
CCCn1c(NC(=O)C2COc3ccccc3O2)nc2ccccc21 (centres undefined) | ? | >57
O=C(CSc1nc2scc(-c3ccco3)c2c(=O)n1-c1ccccc1)NCC1CCCO1 (centres undefined) | ? | >57
c1cc(NC2CC2)nc(-c2ccoc2)n1 | ? | i
O=C(CS(=O)(=O)Cc1ccccc1)N1CCN(Cc2ccc3c(c2)OCO3)CC1 | -0.8% | >57
NS(=O)(=O)c1cc(Cl)c(Cl)c(S(N)(=O)=O)c1 | -14.6%[3.58 µM] | >57
C=CCSc1nc(O)c(CC)c(=O)n1C(C)CC (centres undefined) | 7.5% | nt
O=c1[nH]c(SCc2ccccc2Cl)nc2c1CCC2 | -0.3% | >57
Cc1cc(C)n(-c2nc(NCCCO)c3c4c(sc3n2)CCCC4)n1 | -4.6% | >57
COc1ccc(-n2c(=O)c(-c3cccs3)nc3cnc(Nc4ccccc4)nc32)cc1 | ? | >57
CSc1oc(-c2ccccc2)nc1S(=O)(=O)c1ccc(F)cc1 | 7.1% | >57
NC(N)=S | -14.0% | nt
Cc1cccc(N2CCN(S(=O)(=O)c3ccc4c(c3)CCC(=O)N4)CC2C)c1 (centres undefined) | -13.6% | >57
CCc1nc(N)c(C#N)c(-c2ccco2)c1C | -9.3% | nt
Cn1c(C(=O)NCCN2CCOCC2)cc2c(=O)n(C)c3ccccc3c21 | -17.5% | >57
CN(Cc1c(F)cccc1Cl)c1nnnn1-c1ccccc1 | ? | >57
Cn1c(C(=O)NCCN2CCc3ccccc3C2)cc2c(=O)[nH]c3ccccc3c21 | 10.3% | >57
CCn1c(=O)cc(C(=O)OC)sc1=Nc1ccc(F)c(F)c1 | ? | >57
COc1cc(OC)c2c(c1Cl)O[C@@]1(C2=O)[C@H](C)CC(=O)C[C@@H]1OC | -8.5%[3.58 µM] | >57
CCN(C(=O)COc1cc(=O)n(C)c2ccccc12)c1cccc(Cl)c1 | 6.1% | >57
COc1cccc(C2=NOC(C(=O)Nc3cc(OC)c(OC)c(OC)c3)C2)c1 (centres undefined) | ? | >57
Oc1ccccc1Cl | ? | nt
COc1cccc2[nH]c3c(N4CCC(C)CC4)ncnc3c12 | 4.9% | >57
O=C(NC1CCCCC1)C1CCN(S(=O)(=O)c2cccs2)CC1 | -19.6% | >57
COc1ccccc1-c1noc(CCC(=O)Nc2cc(C(F)(F)F)ccc2Cl)n1 | ? | >57
Cc1cc(NC(=O)CSc2nc3ccsc3c(=O)n2CCCCC(=O)O)no1 | -5.1% | >57
COC(=O)c1ccc(N2C(=O)CC(N3CCOCC3)C2=O)cc1 (centres undefined) | 6.3% | >57
Cc1ccccc1NC(=O)Cn1cccc1 | 6.5% | >57
COc1cc(C(=O)Nc2ccc3c(c2)C(=O)N(CCC(=O)O)C3=O)cc(OC)c1OC | ? | >57
Cc1cc(C)n2ncc(C(=O)NCc3cccnc3)c2n1 | -1.1% | >57
CCCCOC(=O)C1[C@H]2C(=O)N(c3ccccc3CC)C[C@]23C=C[C@H]1O3 (some centres undefined) | ? | >57
O=C(NC(NCCCN1CCOCC1)(C(F)(F)F)C(F)(F)F)C1CCCCC1 | -7.0% | >57
CC(C)[C@@H]1O[C@H](/C=C\c2ccccc2)OCC1(C)C | 3.4%[8 µM] | >57
CCCNC(=O)NC(=O)CSc1nnc(-c2ccncc2)n1CC | -6.7% | >57
COc1ccc(NC(=O)c2cc(-c3ccc(C)o3)nc3ccccc23)cc1OC | -18.4% | >57
C[C@H](CCC(=O)O)[C@H]1CC[C@@H]2[C@H]3CC[C@H]4C[C@H](O)CC[C@@]4(C)[C@@H]3CC[C@@]21C | 1.3%[8 µM] | >57
O=C(Nc1ccc(S(=O)(=O)N2CCOCC2)cc1)C1COc2ccccc2O1 (centres undefined) | -18.7% | >57
CCNc1nc(SC(C)C(=O)Nc2ccccc2)nc(N2CCOCC2)n1 (centres undefined) | -2.9% | >57
COc1cccc(CNc2ccc(S(N)(=O)=O)cc2)c1OC | -9.0% | >57

# In the list so far, 4 contain a CF3 group.
Molecule | Anthrax LT inh | SmPrx2 inh
FC(F)(F)c1nnc2ccc(N3CCCCCC3)nn12 | ? | >57
Cc1nn(-c2ccccc2)c2[nH]c(C(F)(F)F)cc(=O)c12 | -14.0% | >57
COc1ccccc1-c1noc(CCC(=O)Nc2cc(C(F)(F)F)ccc2Cl)n1 | ? | >57
O=C(NC(NCCCN1CCOCC1)(C(F)(F)F)C(F)(F)F)C1CCCCC1 | -7.0% | >57
